Compound activity (PubChem BioAssay)
S aureus helic: inhibitors of S. aureus replicative helicase, primary screen, biochemical, fluorescence unwinding readout; replicative DNA helicase (DnaC/DnaB), Staphylococcus aureus; purified S. aureus helicase, fluorescence unwinding assay; about half of the hits fall short of the stated cut; inhibition, %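 (tested at about 80 µM)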; hit rate 0.05% among 120,000; AID 485395, 2010;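 active means both duplicates at 50% or more, or one of them with a favoured structure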;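 further: 0% = mean of negative control wells and 100% = mean of positive control wells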
MgrA DNA FP: S. aureus MgrA activity modulators, primary screen, biochemical, S. aureus Newman, fluorescence polarization; MgrA-DNA binding; inhibition, %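 (about 10 µg/mL by stock and volumes)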; hit rate 0.13% among 84,000;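 active means above 50% in either of two replicates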;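 further: 0% = protein plus DNA without compound and 100% = DNA alone without protein; higher means less MgrA bound to DNA so lower polarization; one replicate is shown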
* marks the source's active call; other numbers are inactive results; . = not tested or not shown. This is a subset; the hit share may differ from the screen's.

SMILES	S aureus helic	MgrA DNA FP
CC1(C)CC(=O)C(C=NC2CCCC2)=C(O)C1	8.0	2.2
Cc1ccc(S(=O)(=O)Nc2ccc(C)c([N+](=O)[O-])c2)cc1	.	0.4
Cc1ccc(C(CC(=O)c2ccco2)Sc2ccccc2N)cc1 (stereo unspecified)	19.0	.
O=C(Nc1ccccc1Oc1ccccc1)c1cccs1	.	0.8
c1coc(-c2nc(-c3ccco3)c(-c3ccco3)nc2-c2ccco2)c1	3.0	.
CN(Cc1ccccc1)C(=O)CSc1nnc(-c2ccccc2F)n1N	3.0	.
CCSC1=N/C(=C\c2ccc(-c3cccc(Cl)c3)o2)C(=O)S1	0.0	14.6
Cc1ccc(Nc2c(-c3ccc(N4CCOCC4)cc3)nc3ccccn23)cc1	-6.0	.
CC(C)CN1C(=O)c2ccc(C(=O)Nc3ccncc3)cc2C1=O	24.0	1.5
CCN1CC(=O)N(CC)C1=S	-12.0	.
CCCCOc1ccc(C(=O)OCC2CCCN3CCCCC23)cc1OC (stereo unspecified)	13.0	-1.6
COc1ccc2ncc(S(=O)(=O)c3ccc(C)c(C)c3)c(N3CCN(C)CC3)c2c1	22.0	.
CC1CN(C(=O)Nc2ccc(F)cc2)c2ccccc2S1 (stereo unspecified)	19.0	.
Cc1ccc(S(C)(=O)=O)s1	-3.0	2.5
CSC(=NC(=O)c1c(Cl)cccc1Cl)SC	.	-2.0
OCCCc1nc2ccccc2n1CC1CCCCC1	14.0	-0.2
CC1(C)CC(=O)C2=C(C1)OC(N)=C(C#N)C2CCc1ccccc1 (stereo unspecified)	-19.0	.
C=CCOc1nc(N2CCCC2)nc(N2CCCC2)n1	11.0	.
COc1cc(/C=N/OCC(=O)N2C(C)CCCC2C)ccc1OC(F)F (stereo unspecified)	3.0	.
O=C(NC1CCN(c2ncccn2)CC1)c1c(F)cccc1F	23.0	.

As entered above.
MgrA DNA FP with OCCCc1nc2ccccc2n1CC1CCCCC1 stands at -0.2
S aureus helic with O=C(NC1CCN(c2ncccn2)CC1)c1c(F)cccc1F stands at 23.0
S aureus helic with CCCCOc1ccc(C(=O)OCC2CCCN3CCCCC23)cc1OC (stereo unspecified) stands at 13.0
S aureus helic with CC1(C)CC(=O)C2=C(C1)OC(N)=C(C#N)C2CCc1ccccc1 (stereo unspecified) stands at -19.0
S aureus helic with CC1CN(C(=O)Nc2ccc(F)cc2)c2ccccc2S1 (stereo unspecified) stands at 19.0
S aureus helic with C=CCOc1nc(N2CCCC2)nc(N2CCCC2)n1 stands at 11.0
MgrA DNA FP with CSC(=NC(=O)c1c(Cl)cccc1Cl)SC stands at -2.0

The results go on:
SMILES	S aureus helic	MgrA DNA FP
COc1ccccc1OCCNC(=O)c1ccc(-n2cnnc2)cc1Cl	7.0	-0.7
CC1CN(C)C(C)CC1OC(=O)c1ccco1 (stereo unspecified)	-3.0	.
CSC(N)=Nc1cc(C)c(C)cc1C	.	-2.0
CN(C)S(=O)(=O)c1ccc(NCc2c(C#N)oc3ccc(Br)cc23)cc1	-5.0	.
O=C(O)CSc1nnc(-c2ccncc2)n1-c1ccccc1	-18.0	.
COc1ccc(-c2sc(/N=C/c3cccs3)c(C#N)c2C)cc1OC	.	3.0
CCC(=O)Nc1nnc(CC(=O)N/N=C/c2ccc(O)cc2)s1	1.0	-1.9
Cc1ccc(Cl)cc1NC(=S)NCc1ccncc1	.	3.5
COC(=O)c1cc(OCC(F)(F)F)nc(OCC(F)(F)F)c1	.	-1.0
O=C(NC1CCCCC1)C1CCCN1C(=O)Oc1ccccc1 (stereo unspecified)	0.0	-1.0
O=C(O)c1ccccc1C(=O)NCc1ccccc1	6.0	.
Nc1c(NC2CCN(Cc3ccccc3)CC2)c2ccccc2oc1=O	5.0	1.9
Cc1c(Cl)cccc1NC(=O)C1CC(=O)N(C(C)C)C1 (stereo unspecified)	18.0	.
COc1cc(C#N)ccc1OCC(=O)Nc1cccc2nsnc12	-9.0	.
COc1ccc(N(Cc2nc(N)nc(N)n2)S(=O)(=O)c2cc(C)ccc2C)cc1	5.0	.
Cc1cccc(COc2ccc3ccc(=O)oc3c2)c1	19.0	.
FC(F)(F)c1cnc(NCc2cccnc2)c(Cl)c1	.	-1.5
Cc1nn(-c2ccccc2)c2c1CC1(C(=O)NC(=O)c3ccccc31)C1CCCN21 (stereo unspecified)	3.0	.
CNC(=O)c1c(NC(=O)c2nc3ccccc3s2)sc(C)c1C	-18.0	.
CN(C(=O)c1nn(C)c2c1CSc1ccccc1-2)c1ccccc1Cl	2.0	1.6
CC(=O)N1CCN(C(=O)c2cccc(S(=O)(=O)N(C)C(C)C)c2)CC1	1.0	.
CNCC(=O)Nc1cc(C)ccc1C	9.0	.
COC(=O)c1ccc(S(=O)(=O)N(CCO)CCO)n1C	-13.0	.
Cc1ccc(-c2nn3cnnc3c3ccccc23)cc1	21.0	.
COc1ccc(-c2cc(C(F)(F)F)nc(SCCC(=O)N(C)c3ccccc3)n2)cc1	-2.0	-2.5
CCOC(=O)c1cn2nc(-c3ccc(OCC)cc3)cc2nc1C	16.0	.
CCN(CC)C(=O)c1cc(-c2ccccc2O)on1	4.0	4.3
COc1ccc(/C=C2/SC(=S)N(c3c(C)n(C)n(-c4ccccc4)c3=O)C2=O)cc1OC	.	-0.3
Cc1ccc(COc2ccccc2C(N)=O)cc1	3.0	.
CCn1cc(C2=NC(c3ccccc3)CO2)c2ccccc21 (stereo unspecified)	6.0	-0.4
COc1ccccc1NC1=NC2(N=C(N)N1)C(=O)N(C(C)=O)c1ccccc12 (stereo unspecified)	-3.0	0.9
CCOC(=O)C1=C(C)N=c2s/c(=C3\C(=O)N(CC(N)=O)c4ccccc43)c(=O)n2C1c1ccccc1Cl (stereo unspecified)	.	-1.1
COc1cc(OC)cc(C2CC(OC(=O)Cn3ncc4ccccc4c3=O)C(=O)N2C)c1 (stereo unspecified)	-3.0	-3.5
CCOC(=O)CC1C(=O)NCCN1Cc1ccc(Cl)c(F)c1 (stereo unspecified)	-15.0	.
COc1ccc(N=C2SC(C(=O)Nc3ccc(C(=O)O)cc3)CC(=O)N2CCc2ccc(OC)c(OC)c2)cc1 (stereo unspecified)	.	0.2
CCc1ccccc1NC(=O)CN1CCNCC1	-2.0	.
CCCCn1c(CNC(=O)Cc2ccccc2)nc2ccccc21	-6.0	.
O=C(OC1CCCCC1=O)c1cccnc1Cl (stereo unspecified)	21.0	-0.1
CC(=O)N=c1sc2cc(C)ccc2n1C	-15.0	.
CS(=O)(=O)c1ccccc1C(=O)Nc1ccc(-c2nc3ccccc3o2)cc1	-11.0	.
CCOC(=O)c1ccc(NC(=O)CCOc2cccc(C)c2)cc1	-15.0	-0.7
CCCN1CCOC(CC(=O)Nc2ccc(Br)cc2Br)C1=O (stereo unspecified)	-3.0	.
CC1C(=O)C(C)C(c2ccc(O)cc2)NC1c1ccc(O)cc1 (stereo unspecified)	9.0	.
CCOC(=O)c1[nH]ncc1Sc1ccc(Cl)cc1	.	1.3
NC(=O)c1ccc(-c2nnc(-c3ccccc3)o2)cc1	15.0	2.8
O=C(NCc1cccnc1)/C(=C\c1ccc(Br)cc1)S(=O)(=O)c1ccccc1	10.0	2.0
COc1ccccc1/C=N/N(CCC#N)C1=NS(=O)(=O)c2ccccc21	12.0	.
CC(Sc1nnc(-c2ccccc2)n1N)C(=O)O (stereo unspecified)	0.0	-1.8
CCOC(=O)C1CCN(C(=O)c2cc3c(ccc4ccccc43)o2)CC1	16.0	0.3
CN(C)S(=O)(=O)c1cccc(COC(=O)c2cnccn2)c1	17.0	.

Remaining list, next part
SMILES	S aureus helic	MgrA DNA FP
CCCN1Cc2cccc(C(=O)NCc3cccs3)c2C1=O	3.0	.
COc1ccc(C(=O)N2CC3(C)CC2CC(C)(C)C3)cc1OC (stereo unspecified)	2.0	.
CCC(C)(C#CCN1CCOCC1)OC(C)=O (stereo unspecified)	2.0	-5.3
CS(=O)(=O)c1ccc(Cl)c(NC(=O)CN2CCN(Cc3ccc(Cl)s3)CC2)c1	-6.0	.
C=CCn1c(=O)/c(=C/c2c(O)ccc3ccccc23)s/c1=C(/C#N)c1nnc2n1CCCCC2	-438.0	.
CC1CCCC(C)N1C(=O)C1c2ccccc2Oc2ccccc21 (stereo unspecified)	8.0	0.9
CCNC(=O)C(C)N (stereo unspecified)	-21.0	.
CCN(Cc1ccccc1)C(=O)Cn1c(C(C)O)nc2ccccc21 (stereo unspecified)	-21.0	0.1
CCCCc1sc(N)nc1-c1ccc2c(c1)CCN2S(C)(=O)=O	12.0	-1.4
CC(C)(C)NC(=O)COc1cc(N2CCOCC2)c2ccccc2c1Cl	5.0	-1.3
COCCN1CN=C(Nc2nc3ccccc3s2)NC1	-15.0	.
O=C(CN1CCN(c2ccccc2Cl)CC1)N1CCNC1=O	-6.0	.
CCOc1ccc(I)cc1C#N	5.0	1.4
CN1CCN(C(=S)NC(=O)c2ccccc2)CC1	-12.0	1.5
O=C(NC1CCN(C(=O)Nc2cccc(F)c2)CC1)c1ccco1	5.0	-1.8
Cc1ccc(C(=O)NC(C)C(c2cccs2)N2CCN(C)CC2)cc1 (stereo unspecified)	6.0	.
Cc1c(C(=O)Nc2ccc(N3CCOCC3)c(Cl)c2)cnn1-c1ccc(F)cc1	.	-0.8
CC(=O)Nc1ccc(SCC(=O)N2N=C(c3ccc(Cl)cc3)CC2c2ccco2)cc1 (stereo unspecified)	-3.0	.
CCOC(=O)CSC1=C(C#N)C(c2ccc3c(c2)OCO3)CC(=O)N1 (stereo unspecified)	5.0	.
CCN(Cc1ccccc1)C(=O)c1ccc(CS(=O)c2ccccc2C)o1 (stereo unspecified)	19.0	.

Of the compounds above, four have a COOH group.
SMILES	S aureus helic	MgrA DNA FP
O=C(O)CSc1nnc(-c2ccncc2)n1-c1ccccc1	-18.0	.
O=C(O)c1ccccc1C(=O)NCc1ccccc1	6.0	.
COc1ccc(N=C2SC(C(=O)Nc3ccc(C(=O)O)cc3)CC(=O)N2CCc2ccc(OC)c(OC)c2)cc1 (stereo unspecified)	.	0.2
CC(Sc1nnc(-c2ccccc2)n1N)C(=O)O (stereo unspecified)	0.0	-1.8

Next part
SMILES	S aureus helic	MgrA DNA FP
Cc1ccc(/C(O)=C(\C#N)c2nc3ccccc3s2)cc1C	6.0	.
O=C(CN1CCN(c2ncccn2)CC1)N1CCCC1	11.0	-36.7
CCC1CCCCN1C(=O)CSc1ccc(Cl)cc1 (stereo unspecified)	6.0	0.8
CCOC(=O)c1cc(C(C)(C)C)[nH]n1	.	-1.1
CCOC(=O)Nc1nnc(-c2ccccc2)s1	8.0	-2.2
CCOc1ccc(OCCCC(=O)NC2=NCCS2)cc1	-3.0	.
Cc1c(C(=O)O)oc2ccc3c(c12)C(O)CC(C)(C)O3 (stereo unspecified)	-17.0	.
CCCCN(CC)C(=O)Nc1cn(C)c(=O)c2ccccc12	-14.0	.
Cc1cccc2c3nc4ccccc4nc3n(CC#N)c12	4.0	4.6
CC1CCN(S(=O)(=O)c2ccc(NC(=O)Cn3c(=O)sc4ccccc43)cc2)CC1	30.0	.
CCc1cc(CN)on1	0.0	-3.0
CCc1ccc(C(=O)CSc2nnc3oc4ccc(S(=O)(=O)N(C)C)cc4n23)cc1	3.0	.
CSc1nn(-c2ccccc2)cc1C(=O)Nc1cccc(C(F)(F)F)c1	.	0.1
O=c1nc(-c2ccccc2)nc(-c2ccccc2)[nH]1	.	0.6
CC(C)(C)C(=O)Nc1cccc2[nH]ncc12	.	1.5
C=C1CSc2nc(=O)c3c4c(sc3n21)CCC4	6.0	.
CNC1C(O)C(OC2C(N)CC(N)C(OC3OC(CN)=CCC3N)C2O)OCC1(C)O (stereo unspecified)	.	-0.1
Cc1ccc(Nc2nc(C(=O)NCc3ccco3)cs2)cc1	14.0	-4.2
COc1ccc(Cl)cc1S(=O)(=O)N1CCN(Cc2ccc3c(c2)OCO3)CC1	13.0	.
CCCCCCCCCCCCCC(=O)N[C@H](C)[C@@H](O)c1ccccc1	.	0.0
Cc1cc(C)n2c(SC3CCCCC3NS(=O)(=O)c3ccccc3)nnc2n1 (stereo unspecified)	8.0	2.9
CC(C)C(C(=O)Nc1ccc(F)cc1)N1Cc2ccccc2C1=O (stereo unspecified)	-9.0	.
O=S(=O)(NC1CCCC1)c1ccccc1Cl	-4.0	.
COCCn1c(C)cc(C(=O)COC(=O)CN2C(=O)c3ccccc3C2=O)c1C	-1.0	.
CCC1CCc2nc3sc(C(=O)Nc4ccccc4C(F)(F)F)c(N)c3cc2C1 (stereo unspecified)	17.0	2.7
O=C1NCCN/C1=C\c1ccc2ccccc2n1	-11.0	.
CCCN(CCC)S(=O)(=O)c1ccc(C(=O)Nc2cccc(SC)c2)cc1	.	-1.5
O=C1OCc2cc(NS(=O)(=O)c3ccc(C4CCCCC4)cc3)ccc21	0.0	-0.4
COC(=O)c1cc(NC(=O)C2CCCN(S(=O)(=O)N3CCC(C)CC3)C2)cc(C(=O)OC)c1 (stereo unspecified)	-20.0	.
Cn1cc2c(=O)[nH]nnc2n1	-11.0	.
O=C(CSC(=O)c1sc2ccccc2c1Cl)Nc1ccc(F)cc1	.	-3.9
CCOC(=O)c1scnc1C	-8.0	-0.9
CC12CCCC(C(N)=O)(CCC1)C2	6.0	0.8
CC(O)CNc1nc2ccccc2n1CC(=O)NC12CC3CC(CC(C3)C1)C2 (stereo unspecified)	9.0	.
CCN(CC)C(=O)c1sc(N)c(C#N)c1C	-1.0	-0.2
O=C(Nc1nnc(C(F)(F)F)s1)c1ccc(F)c(Cl)c1	.	0.6
Oc1ccccc1-c1cc2ccccc2[nH]1	7.0	.
Cc1noc(-c2ccccc2OCC(=O)O)n1	-3.0	-3.7
